Bioassay records: PubChem, several laboratories
Mtb growth = M. tuberculosis H37Rv growth inhibitors, H37Rv strain (AID 1626); M. tuberculosis H37Rv growth inhibition; higher % means a stronger effect; inhibition, % at 10 µM, or IC50 in µM where a hit was titrated; hit rate 0.95% among 220,000;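 active = confirmed in a dose series; inconclusive = inhibition above 80% but not taken into the dose series; inactive = below 80% or under 30% at every dose of the series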;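 also: bacteria incubated seven days before Alamar blue readout; 0% = bacteria only wells and 100% = bacteria with antibiotic wells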
Arbovirus anti = antivirals against arbovirus infection, primary screen, cell-based, full library, 10K replicate subset | inhibition, % at 10 µM | AID 1251, 2008 | arbovirus infection cell-based antiviral screen | hit rate 0.37% among 200,000;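 active = inhibition from about 30%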;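 also: bluetongue infection of BSR cells; cell survival read as ATP light after 72 h; 0% = infected wells without compound and 100% = uninfected wells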
RecA intein inh = Mtb RecA intein splicing inhibitors, primary screen, biochemical, fluorescence, HTS | hit rate 0.75% among 290,000 | Protein RecA (Mycobacterium tuberculosis (strain ATCC 25618 / H37Rv)), P9WHJ3 | inhibition, %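 (about 9 µM by stock and volumes)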 | cell-free RecA intein splicing | AID 2221, 2009; in the data active = inhibition above about 30%; inconclusive = no clear call, values can overlap the other calls;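 also: 0% = vehicle wells and 100% = reference inhibitor control wells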
Target sequence (P9WHJ3 whole entry, looked up): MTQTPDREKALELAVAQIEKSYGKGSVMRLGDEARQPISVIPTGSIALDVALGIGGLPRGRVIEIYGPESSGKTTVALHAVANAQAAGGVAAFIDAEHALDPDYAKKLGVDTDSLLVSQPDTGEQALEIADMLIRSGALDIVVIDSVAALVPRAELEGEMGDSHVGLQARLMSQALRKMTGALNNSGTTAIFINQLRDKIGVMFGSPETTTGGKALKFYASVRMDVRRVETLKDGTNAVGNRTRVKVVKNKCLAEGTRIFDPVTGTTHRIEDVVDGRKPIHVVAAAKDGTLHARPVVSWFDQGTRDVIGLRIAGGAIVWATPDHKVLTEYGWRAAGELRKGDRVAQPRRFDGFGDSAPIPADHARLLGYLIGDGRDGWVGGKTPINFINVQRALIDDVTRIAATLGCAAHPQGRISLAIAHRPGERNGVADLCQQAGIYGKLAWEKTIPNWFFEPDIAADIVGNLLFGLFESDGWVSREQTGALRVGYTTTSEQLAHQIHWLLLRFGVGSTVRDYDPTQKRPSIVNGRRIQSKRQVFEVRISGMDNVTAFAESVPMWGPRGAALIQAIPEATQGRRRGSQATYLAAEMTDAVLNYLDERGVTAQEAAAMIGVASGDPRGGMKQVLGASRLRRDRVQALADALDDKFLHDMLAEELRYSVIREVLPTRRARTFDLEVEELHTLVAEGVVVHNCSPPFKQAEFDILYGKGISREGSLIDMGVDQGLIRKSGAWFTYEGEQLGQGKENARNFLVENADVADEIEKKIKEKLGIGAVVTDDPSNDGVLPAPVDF
Mtb betalactam = beta-lactam sensitization of Mtb H37Rv, H37Rv | M. tuberculosis H37Rv growth with meropenem, percent inhibition; hits of this screen are not shown here | inhibition, % at 25 µM | hit rate 0.27% among 330,000;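 active = about 74% or more and at least 40 points above the plate without the antibiotic, then above 30% in a dose series; inconclusive = first-round hits that could not be retested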;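 also: growth measured after seven days incubation then overnight dye step; 0% = bacteria only wells and 100% = bacteria with antibiotic; twin plates without the antibiotic show which effects depend on it; some results filed as inactive read as strong as hits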
YopH inh = YopH tyrosine phosphatase inhibitors, primary screen, biochemical, fluorescence Ex485/Em525 | YopH tyrosine phosphatase [Yersinia enterocolitica] | inhibition, %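 (about 10 µM by stock and volumes)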 | hit rate 0.16% among 140,000 | AID 898, 2007;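 active = inhibition of 50% or more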;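 also: controls were vehicle for no effect and minimum signal wells for full effect; inactives centre near -20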
Arbovirus anti repeat = second read-out of Arbovirus anti, no call of its own (marks repeat the call); inhibition, %; measured here: 10K subset replicate screen; many hits read low in the repeat;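 first of two repeat runs on a subset; 0% = infected and 100% = uninfected wells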
Numbers without * were called inactive; i = inactive; ? = inconclusive; . = not tested or not shown.

SMILES	Mtb growth	Arbovirus anti	RecA intein inh	Mtb betalactam	YopH inh	others
Cc1nnc(SCC(=O)Nc2ccc([N+](=O)[O-])cc2)n1C	.	.	-5.0	13	.
COc1ccccc1CNc1nc2ccccc2n1CCN1CCCCC1	-4%	-4	.	10	-43
COc1cccc(C2NC(=O)NC(C)=C2C(=O)Nc2ccc(C)cc2)c1OC (configuration not stated)	2%	5	.	-8	-37	Arbovirus anti repeat=1
COc1ccc(-n2ncc3c(=O)n(CC(=O)Nc4ccc5c(c4)OCCO5)cnc32)cc1	.	.	2.1	4	.
CCCNS(=O)(=O)c1ccc(C(=O)NCC2CCCO2)cc1 (configuration not stated)	5%	-1	-0.5	-2	-9
COc1ccc(-c2nc(-c3ccccc3)nc(N3CCN(C)CC3)c2C#N)cc1	10%	2	0.8	95	-30
COc1ccccc1-c1nnc(C2CCN(S(=O)(=O)c3cccc([N+](=O)[O-])c3)CC2)o1	.	.	1.5	-7	.
COc1cccc(NC(=O)C2CCN(C(=O)NC3CCCCC3)CC2)c1	.	.	0.8	8	.
COc1ccccc1/C=N/NC(=O)C(=O)NCc1cccnc1	0%	-3	-5.3	-4	.
Cc1c(C(C)(C)C)sc(=NC(=O)c2ccccc2O)n1C	.	.	-1.1	45	.
CCOc1ccc(-c2csc(NNC3=NCCCCC3)n2)cc1	-2%	-13	.	11	.
CCCN(CCC)CCCOC(=O)c1ccc(Cl)cc1Cl	4%	-1	1.8	45	7
CCOc1ccc2oc(C(=O)NC(C)(C)CC)c(C)c2c1	64%	1	2.2	97	.
CC/C(=N\NC(=O)CCC(=O)NCc1ccccc1)c1ccc(O)cc1	-7%	-21	-3.4	-4	.
CCOC(=O)c1cc(-c2ccc(F)cc2)n(CC(=O)NC(C)CC)c1C (configuration not stated)	8%	-3	-1.4	2	.
CC(=O)N1CCc2cc(S(=O)(=O)NC(Cc3ccccc3)C(=O)NC3CCCCCC3)ccc21 (configuration not stated)	-11%	0	-1.8	-5	-15
C/C(=C\c1ccccc1)C(=O)NCCc1ccccc1	-2%	3	-0.3	-2	.
CC1CN(C(=O)C2(C)CC2(Br)Br)CC(C)O1 (configuration not stated)	7%	13	-2.1	0	-29
C=CCc1cccc(/C=N/NC(=O)c2ccc3nc[nH]c3c2)c1O	.	.	11	12	.
O=C(COc1nncc2ccccc12)Nc1ccc(F)c(F)c1	2%	22	-2.5	7	.

Part of the list above in order of molecular weight, largest number first.
SMILES	Mtb growth	Arbovirus anti	RecA intein inh	Mtb betalactam	YopH inh	others
CC(=O)N1CCc2cc(S(=O)(=O)NC(Cc3ccccc3)C(=O)NC3CCCCCC3)ccc21 (configuration not stated)	-11%	0	-1.8	-5	-15
CC1CN(C(=O)C2(C)CC2(Br)Br)CC(C)O1 (configuration not stated)	7%	13	-2.1	0	-29
CCCN(CCC)CCCOC(=O)c1ccc(Cl)cc1Cl	4%	-1	1.8	45	7
CCOc1ccc(-c2csc(NNC3=NCCCCC3)n2)cc1	-2%	-13	.	11	.
CCOc1ccc2oc(C(=O)NC(C)(C)CC)c(C)c2c1	64%	1	2.2	97	.

New compounds follow:
SMILES	Mtb growth	Arbovirus anti	RecA intein inh	Mtb betalactam	YopH inh	others
CCOC(=O)c1c(NC(=O)CN2CCCc3ccccc32)sc(C)c1C	11%	5	5.4	5	-22
CCc1nnc(SCC(=O)Nc2nnc(C)s2)n1CC1CCCO1 (configuration not stated)	.	.	2.6	-6	.
CSc1ccccc1NC(=O)CCc1ccccc1	1%	-2	-0.7	76	.
CCN1CCN(C(=O)CSc2nc(N)cc(N)n2)CC1	-1%	5	-3.2	-5	.
Cc1ccccc1NC(=O)CN1C(=O)NC(C)(CCc2ccccc2)C1=O (configuration not stated)	-6%	6	0.4	1	.
COc1cc(/C=N/Nc2nc(-c3ccc(S(=O)(=O)N(C)C)cc3)cs2)ccc1O	5%	.	3.6	-1	.
Cn1c(=O)n(Cc2ccccc2)c(=O)c2c1nc1n2CCN1Cc1ccco1	2%	4	-3.9	-9	.
COc1ccc(OC)c(C2=NS(=O)(=O)N(C)C(C(=O)NCc3ccco3)=C2)c1	.	.	-2.0	-2	.
COCCn1c(=S)[nH]c2ccccc21	-6%	5	2.2	0	.
COCCNC(=O)Cn1cc(C(=O)c2ccccc2F)c2ccccc21	.	.	4.5	-4	.
Cc1cc(NC(=S)N(Cc2ccc(Cl)cc2)Cc2ccc(C(=O)O)cc2)ccc1Cl	-3%	-2	14	4	.
COc1ccc(/C=N/NC2=NCCCCC2)cc1	-3%	4	2.2	6	-10
COCCN1C(=O)/C(=C/c2ccc(N3CCCC3)cc2)SC1=S	8%	-6	0.2	6	.
COc1ccc(/C=C2/C(=O)NC(=S)N(C3CC3)C2=O)cc1CN1C(=O)c2ccccc2C1=O	-3%	-2	.	1	-22
O=C(Nc1ccc(N2CCN(C(=O)c3ccccc3)CC2)cc1)c1ccc(Br)o1	20%	-26	0.6	98	9
Cc1ccc(C2(C)NC(=O)N(CC(=O)N3CCN(S(=O)(=O)c4ccc(Cl)s4)CC3)C2=O)cc1 (configuration not stated)	.	.	0.9	-21	.
CC(=O)c1cccc(NC(=O)Nc2ccc(C(=O)N3CCOCC3)cc2)c1	-4%	2	-3.1	0	-7
NC(=O)C1(N2CCCCC2)CCN(C(=O)c2ccccc2)CC1	-2%	15	-0.1	-4	-30	Arbovirus anti repeat=2
Cc1cccc(NC(=S)NNC(=O)c2csc3c2CCC(C)C3)c1 (configuration not stated)	14%	-28	9.1	22	-28
CCC1Oc2ccc(C)cc2N(CC(=O)NCCCN2CCCCC2C)C1=O (configuration not stated)	.	.	1.0	-4	.
NC(=O)c1ccc(N2CCCCCC2)c([N+](=O)[O-])c1	5%	-6	-0.7	-1	.
O=C1Nc2ccc([N+](=O)[O-])cc2OC1CCN1CCOCC1 (configuration not stated)	1%	3	0.1	7	.
O=C(CNc1cccc(S(=O)(=O)N2CCOCC2)c1)Nc1ccc(C(F)(F)F)cc1	.	.	2.3	-2	.
COc1cc(C(=S)N2CCCC2)ccc1OC(=O)c1ccc(Cl)cc1[N+](=O)[O-]	7%	20	6.2	85	-21
Cc1ccc(S(=O)(=O)CCC(=O)OCc2ccccc2)cc1	4%	-2	-0.5	8	.
CCn1c(=O)[nH]c(=O)c2c(N)c(C(=O)c3ccccc3OC)sc21	4%	19	-0.7	1	-21
CCOC(=O)C1(CC/C(C)=N\NC(N)=O)CC(C)(C)OC1=O (configuration not stated)	-7%	9	-0.5	-3	-12
Cc1c2c(n3c(nc4ccccc43)c1C#N)N(CCCN(C)C)CC2	14%	4	i	-4	.
COC(=O)/C=C/c1cnc[nH]1	.	.	-0.9	-8	.
Nc1nnc(SCC(=O)c2ccc([N+](=O)[O-])cc2)s1	-7%	6	-5.0	-2	.
CCCCN(C(=O)C1=COCCO1)c1c(N)n(CCCC)c(=O)[nH]c1=O	.	.	-2.5	-16	.
O=C(COC(=O)CCC(=O)c1cccs1)Nc1cc(S(=O)(=O)N2CCOCC2)ccc1Cl	-7%	3	0.9	9	-19
O=C(O)CC(CC(=O)Nc1ccc(Oc2ccccc2)cc1)c1ccccc1 (configuration not stated)	3%	.	2.2	-5	.
CC(C)(NC(=O)c1ccccc1)c1nc2ccccc2s1	.	.	-3.9	4	.
COc1ccc(Cl)cc1NC(=O)CN(C)C(=O)c1ccc2c(c1)OCCO2	.	.	0.6	-4	.
Cc1ccccc1OCCn1cc(C(=S)N2CCCC2)c2ccccc21	.	.	.	-10	-20
CCOc1ccc(CN(C)CC(=O)c2c(N)n(Cc3ccccc3)c(=O)n(CC)c2=O)cc1OC	2%	-1	-1.0	-8	-17
Cc1[nH][nH]c(=O)c1N=Nc1ccc(F)cc1	.	.	6.2	-10	.
CCCCCC(=O)N1CC2(CC(c3cccc(NC(=O)COc4ccc(Cl)cc4)c3)=NO2)C[C@@H]1C(N)=O (some centres not stated)	-2%	.	0.4	58	.
CCOC(=O)C1(CC2CCCCO2)CCN(C(=O)Nc2ccc(C)c(C)c2)CC1 (configuration not stated)	8%	-6	1.3	-5	.
COc1cccc(Cn2cccc(NC(=O)NC3CCCCC3)c2=O)c1	-6%	7	1.1	-11	-38
Cc1ccc(C(=O)Cc2nnc(C)s2)cc1	8%	-3	-0.2	5	10
CCOc1ccccc1NC(=O)NCCN1CCCCC1	.	.	-0.9	3	.
CCCCNCc1cccn1-c1ccccc1	5%	-7	6.1	-10	-21
COc1ccc(CCNC(=O)CN(c2ccccc2OC)S(C)(=O)=O)cc1	-6%	7	-0.4	?	12
CCCCc1nnc(NC(=O)CN(C)S(=O)(=O)c2ccc(C)cc2)s1	.	.	1.3	0	.
O=c1cc(CO)oc(CN2CCN(c3ccccc3F)CC2)c1O	7%	-1	5.4	-3	-10
O=C(NCc1ccccn1)Nc1ccc(F)c(Cl)c1	.	.	0.7	-18	.
CCC(=O)N1CCc2cc(S(=O)(=O)NCCC(=O)N3CC=C(c4ccccc4)CC3)ccc21	1%	8	.	-5	-47
COc1ccc(NC(=O)CSc2n[nH]c(N)n2)c([N+](=O)[O-])c1	-4%	-1	0.7	0	-32

Next part.
SMILES	Mtb growth	Arbovirus anti	RecA intein inh	Mtb betalactam	YopH inh	others
COc1cc(OC)cc(C(=O)NNC(=O)CNC(=O)c2ccc(Br)o2)c1	.	.	6.5	-5	.
CN(C)c1cccc(NC(=O)c2cccc3ccccc23)c1	.	.	-1.2	-4	.
Cc1cc(O)c(C2(C(F)(F)F)NCCNC2=O)cc1C (configuration not stated)	-6%	-1	-2.0	2	-27
CC(=O)Oc1ccc(C23CC4CC(CC(C4)C2)C3)cc1C(=O)O	.	.	2.4	-3	.
CN(C(=O)C(C)(C)C)c1ccc(OCC(=O)N2CCc3ccccc3C2)cc1	.	.	3.6	-1	.
CC1(C)Oc2ccc3ccc(=O)oc3c2C(/C=N/O)=C1Cl	.	.	-6.8	1	.
O=C1c2cccc3cccc(c23)C(=O)N1CCN1CCN(C(=S)Nc2ccccc2)CC1	6%	0	-0.1	3	-32
CC(=O)NC(=S)Nc1cccc2c(C)cc(C)nc12	0%	-5	1.2	26	.
COc1ccc(-c2cn(-c3cccc(C)c3)c(=O)[nH]2)cc1OC	6%	9	-10	-4	.
COc1ccc(NC(=O)c2ccc(C(=O)Nc3ccc(OC)cc3OC)cc2)c(OC)c1	-3%	-5	-0.5	8	.
CCCCONc1ncnc2nonc12	2%	2	0.9	2	-30
COc1ccccc1NC(CC(=O)c1ccccc1)C(=O)OCC(=O)c1ccc(F)cc1 (configuration not stated)	78%	3	9.0	99	-29
O=c1cnn(Cc2c(Cl)cccc2Cl)c2ccccc12	.	.	2.4	0	.
O=C(NCc1ccccc1)C(=O)c1cn(CC(=O)N2CCOCC2)c2ccccc12	.	.	0.2	-2	.
CN(CC(=O)N1CC=C(c2ccccc2)CC1)S(=O)(=O)c1ccc2c(c1)c(=O)n(C)c(=O)n2C	.	2	-1.2	-3	-31	Arbovirus anti repeat=2
Cc1cc(C)cc(NC(=O)Nc2ccc(N3CCCCC3)cc2)c1	4%	.	-1.1	1	.
Cc1ccc(CS(=O)(=O)Cc2ccc(C(=O)NCCCN3CC(C)CC(C)C3)o2)cc1 (configuration not stated)	.	.	-2.6	9	.
COc1ccc(CCN(Cc2nc3ccccc3c(=O)[nH]2)C(=O)c2ccco2)cc1	6%	-1	0.8	-4	-46
COc1cccc(C(=O)NNC(=O)C(=O)Nc2cccc(Cl)c2C)c1	.	.	3.1	96	.
Cc1ccccc1NCN1C(=O)C2C3C=CC(C3)C2C1=O (configuration not stated)	-8%	12	-0.1	4	-43	Arbovirus anti repeat=3
CCOc1ccc(-c2cc(CCCC(=O)NCCCOC)no2)cc1	4%	2	0.0	?	4
COc1ccc(CN(C)C(=O)c2cnc(C)cn2)c(OC)c1OC	.	.	-6.7	-9	.
O=C1c2ccccc2C(O)N1Cc1ccccc1 (configuration not stated)	-5%	2	2.8	-8	-50
COc1ccc(C(=O)C2CCCN(C(=O)c3ccc4nccnc4c3)C2)c(C)c1 (configuration not stated)	.	.	2.4	-6	.
CCOC(=O)C(NCc1ccco1)(NC(=O)c1ccccc1)C(F)(F)F (configuration not stated)	1%	6	-0.7	1	-16
CCC(CC)C(=O)Nc1nnc(CCc2ccccc2)s1	.	.	15	9	.
Cc1ccc(C2(C)NC(=O)N(CC(=O)N(Cc3ccccc3)C(C)(C)C)C2=O)cc1 (configuration not stated)	.	.	5.8	7	.
CCCCn1c(SCC(=O)O)nc2ccccc21	-7%	1	0.9	-7	-12

The list is partial, so the mix of outcomes need not match the whole.
